PINK1 modulator = A Quantitative High throughput Screen to Identify Chemical Modulators of PINK1 Expression | PINK1 immunofluorescence, high-content cytometry, 24 h | 410,000 tested, 0.2% active | Potency, µM (series often up to 76.6 µM), without a hit: top-dose activation (PINK1 increase), hits mostly activators | AID 624263, 2012; active = well fitted activation curve with a large enough effect; inconclusive = small, poorly fitted or top-dose-only effect; inactive = flat fitted curve, though single readings scatter; cell line not stated here;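 note: potency is the fitted concentration of half-maximal effect; % of control where 0% means no effect; nearly all actives have a fitted effect of over 65% in size; a mitochondrial uncoupler was the plate control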
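A stable cell line was treated with compounds at 5 concentrations for 24 hours, with CCCP as control. PINK1 levels and mitochondrial localization were measured by immunofluorescence with mitochondrial, cell and nuclear markers after fixation, read by laser-scanning cytometry.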
Six1-Eya2 blk = qHTS Assay for Inhibitors of the Six1/Eya2 Interaction. Homeobox protein SIX1 (Homo sapiens) + Protein phosphatase EYA2 (Homo sapiens), …. AlphaScreen GST-Six1/His-Eya2 binding, biochemical; stronger effect = lower value; control for the full effect not named in the record. activity change, % (concentration not given with the values). 360,000 tested, 0.56% active. AID 651725, 2012; in the data active = activity change below about -65%; inconclusive = about -30% to -65%; inactive = above about -30%; note: % is set by controls: 0 for no effect and ±100 for the full control effect
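Compounds are tested against tagged Six1 and Eya2 proteins bridged by glutathione donor and nickel acceptor beads; after a one-hour incubation at 37 °C without light, AlphaScreen emission is recorded.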
TRPML1 agonist = qHTS for Agonists of the Human Mucolipin Transient Receptor Potential 1 (TRPML1) | TRPML1-expressing cells, Ca2+ dye fluorescence, FDSS; host cell line not named in the record; reference of the full effect not given here | activation, % (concentration not given with the values) | 410,000 tested, 0.12% active | AID 624414, 2012; in the data active = activation above about 50%; inconclusive = about 30% to 50%; inactive = below about 30%; note: 0% is about no effect; the text of the record puts the active cut at 80%
Target sequence (Q9GZU1 whole entry, looked up): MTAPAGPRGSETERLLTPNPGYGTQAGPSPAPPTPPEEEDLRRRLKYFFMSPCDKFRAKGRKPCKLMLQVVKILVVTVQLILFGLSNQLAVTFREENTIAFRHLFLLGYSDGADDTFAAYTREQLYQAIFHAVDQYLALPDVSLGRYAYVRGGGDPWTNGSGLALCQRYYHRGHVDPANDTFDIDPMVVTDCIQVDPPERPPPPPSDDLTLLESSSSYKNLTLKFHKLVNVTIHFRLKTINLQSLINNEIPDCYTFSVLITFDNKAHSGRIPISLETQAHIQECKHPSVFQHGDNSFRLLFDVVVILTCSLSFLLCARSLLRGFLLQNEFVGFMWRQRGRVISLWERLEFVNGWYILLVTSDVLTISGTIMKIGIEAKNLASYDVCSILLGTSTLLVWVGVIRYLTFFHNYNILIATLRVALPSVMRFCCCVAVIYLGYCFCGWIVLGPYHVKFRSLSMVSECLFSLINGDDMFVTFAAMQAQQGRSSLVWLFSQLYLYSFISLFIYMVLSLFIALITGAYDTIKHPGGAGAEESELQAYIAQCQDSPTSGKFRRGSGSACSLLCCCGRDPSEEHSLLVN
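Agonist activity was taken from a 110 s kinetic Ca2+ dye read on the FDSS after pinning compounds onto TRPML1-DL cells. The cells were seeded at 1,500/well with Tet inducer, incubated about 16 h, then dye-loaded at room temperature.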
D2 agonist = Beta-Arrestin HTS for Positive Allosteric Modulators of the Human D2 Dopamine Receptor: Agonists | D(2) dopamine receptor (Homo sapiens), P14416 | 360,000 tested, 0.084% active | DiscoveRx PathHunter D2 beta-arrestin, luminescence, 90 min; 100% = 57 uM dopamine signal | activation, % (concentration not given with the values); in the data active = activation above about 40%; inconclusive = about 15% to 40%; inactive = below about 15%; note: compound concentration not given in the record; the text of the record calls up to 30% inactive
Target sequence (P14416 whole entry, looked up): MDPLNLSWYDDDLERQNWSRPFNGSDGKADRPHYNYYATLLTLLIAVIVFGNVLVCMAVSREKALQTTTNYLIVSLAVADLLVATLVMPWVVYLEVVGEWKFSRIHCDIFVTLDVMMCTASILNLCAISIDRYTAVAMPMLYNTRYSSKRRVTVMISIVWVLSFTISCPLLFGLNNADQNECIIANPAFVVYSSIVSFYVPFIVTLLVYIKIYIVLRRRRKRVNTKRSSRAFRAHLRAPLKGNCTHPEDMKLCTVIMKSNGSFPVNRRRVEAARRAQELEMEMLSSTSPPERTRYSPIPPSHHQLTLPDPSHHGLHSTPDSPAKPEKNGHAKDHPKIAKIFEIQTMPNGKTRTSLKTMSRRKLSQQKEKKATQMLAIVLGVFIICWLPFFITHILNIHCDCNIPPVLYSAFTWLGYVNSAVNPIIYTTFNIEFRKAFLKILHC
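DiscoveRx PathHunter D2 beta-arrestin cells (2,100/well) attached overnight, then compound-stimulated 90 min at 37 C in HBSS/10 mM HEPES/0.1% Tween-20 buffer; beta-galactosidase complementation read by luminescence after 1 h at ambient temperature. Dopamine 57 uM final (EC100) as control.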
D2 PAM = Beta-Arrestin HTS for Positive Allosteric Modulators of the Human D2 Dopamine Receptor: Potentiators | DiscoveRx D2 beta-arrestin cells, luminescence, 90 min; 100% = 57 uM dopamine signal | potentiation, % (concentration not given with the values) | 360,000 tested, 0.23% active | AID 624464, 2012; active = potentiation of 50% or more; inconclusive = 30% to 50%; inactive = 30% or less;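 note: compound concentration not given in the record; tested on top of an EC20 dose of dopamine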
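PathHunter beta-arrestin assay in DiscoveRx D2 cells. Compounds were added with an EC20 of dopamine (50 nM final) for 90 min at 37 deg C. Luminescence was read 1 h after detection reagent, with 57 uM dopamine as the EC100 control.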
CtBP-E1A inh = qHTS Assay for Inhibitors of the CtBP/E1A Interaction. 340,000 tested, 0.49% active. activity change, % (concentration not given with the values). AID 651724, 2012. CtBP / adenovirus E1A interaction (AlphaScreen). AlphaScreen GST-E1A/His-CtBP binding, 1536-well; stronger effect = lower value; control for the full effect not named in the record; in the data active means activity change below about -65%; inconclusive means about -30% to -65%; inactive means above about -30%; note: % is set by controls: 0 for no effect and ±100 for the full control effect
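AlphaScreen with 125 nM GST-E1A and 125 nM His-CtBP (5X stocks) in Tris pH 8.0, 300 mM NaCl, BSA, Tween 20, TCEP. Compounds preincubated 2 h at 37 deg C, then glutathione donor/nickel acceptor beads added for 1 h at 37 deg C in dark.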
* = called active by the depositor; u = inconclusive; x = not tested or not shown; & = joins results of further samples; [ ] = remark or other dose.

Fields – PINK1 modulator	Six1-Eya2 blk	TRPML1 agonist	D2 agonist	D2 PAM	CtBP-E1A inh
COc1cccc(NC(=O)N2CCN(c3cccc(C)c3C)CC2)c1
  -2.0%	-1	-0.2	-0.8	-4	-2
Cc1ccc(C(C)C)c(OCCCCN2CCNCC2)c1
  6.3%	-3	x	-3.8	-69	x
COc1cccc2c(=O)n(CC(=O)N3CCC(C)CC3)ccc12
  0.3%	7	0.2	-4.7	-6	1
c1ccc(Oc2cccc(CN3CCCCC3)c2)cc1
  x	0	0.5	-2.5	-25	3
CCCN(CC(=O)Nc1ccccc1C)C(=O)c1ccc(S(=O)(=O)N2CCCC2)cc1
  1.7%	5	-0.3	0.8	-1	1
O=C(c1nn2c(C(F)(F)F)cc(-c3ccco3)nc2c1Br)N1CCCc2ccccc21
  2.3%	-27	0.2	-2.0	-11	-21
CS(=O)(=O)Nc1ccc(S(=O)(=O)N2CCCC2)cc1
  -0.4%	11	0.7	-1.6	3	1
COc1ccc(C(=O)OCc2cc(=O)oc3cc(C)ccc23)cc1S(=O)(=O)N1CCOCC1
  8.8%	15	-0.1	-4.6	-5	-4
CCCS(=O)(=O)c1c(S(=O)(=O)CCC)c2ccc(C(N)=O)cn2c1C(=O)OC
  0.1%	u	-0.4	-2.6	-1	u
COc1nc(OC)nc(N2CCC(C(=O)Nc3cccc4ccccc34)CC2)n1
  -4.0%[38.3 µM]	-1	1.8	9.7	8	4

Continuation.
Fields – PINK1 modulator	Six1-Eya2 blk	TRPML1 agonist	D2 agonist	D2 PAM	CtBP-E1A inh
COc1ccc(OC)c(S(=O)(=O)NC(C)(C)C)c1
  u	1	-0.2	-0.8	-14	0
CC(C)(C)C(=O)C(C(c1ccccc1)N1CCOCC1)N1CCOCC1 (stereo not drawn)
  1.1%	-5	-0.3	-0.5	-4	-4
CC(C(=O)O)N1C(=O)CSc2ncccc21 (stereo not drawn)
  1.8%	15	0.2	-1.1	-5	6
CCOc1ccc(OCC)c(NC(=O)c2[nH]c(C)c(C(C)=O)c2C)c1
  -0.4%	5	0.2	-3.1	5	10
O=C(Nc1nnc(C2CC2)s1)c1cc(S(=O)(=O)N2CCCCC2)ccc1N1CCOCC1
  0.6%	1	2.8	5.1	10	x
CC(C)(C)c1cc(NC(=O)COC(=O)c2ccccc2O)n(-c2ccccc2)n1
  1.0%	6	0.2	-1.0	2	2
COC(=O)COc1ccc(C2NC(=O)NC(c3ccccc3)=C2C(C)=O)cc1Br (stereo not drawn)
  6.3%	1	0.8	-0.5	3	4
CC(=O)Nc1ccc2nc(SCC(=O)Nc3ccc(N4CCOCC4)c(Cl)c3)sc2c1
  -0.4%	-1	-1.2	-1.2	-2	-3
O=C(CC1COc2ccccc2O1)Nc1ccccn1 (stereo not drawn)
  1.0%	6	0.8	-2.2	3	-2
COc1ccc(NC(=O)CN(C)C(=O)c2cccc(-n3cccc3)c2)cc1
  6.2%	u	-0.3	0.2	-4	-5

Full records from above. Order of values: PINK1 modulator | Six1-Eya2 blk | TRPML1 agonist | D2 agonist | D2 PAM | CtBP-E1A inh
Listed for CC(=O)Nc1ccc2nc(SCC(=O)Nc3ccc(N4CCOCC4)c(Cl)c3)sc2c1 → -0.4% | -1 | -1.2 | -1.2 | -2 | -3
Listed for CC(C)(C)C(=O)C(C(c1ccccc1)N1CCOCC1)N1CCOCC1 (stereo not drawn) → 1.1% | -5 | -0.3 | -0.5 | -4 | -4
Listed for CC(C)(C)c1cc(NC(=O)COC(=O)c2ccccc2O)n(-c2ccccc2)n1 → 1.0% | 6 | 0.2 | -1.0 | 2 | 2
Listed for CCOc1ccc(OCC)c(NC(=O)c2[nH]c(C)c(C(C)=O)c2C)c1 → -0.4% | 5 | 0.2 | -3.1 | 5 | 10
Listed for O=C(CC1COc2ccccc2O1)Nc1ccccn1 (stereo not drawn) → 1.0% | 6 | 0.8 | -2.2 | 3 | -2

Further structures
Fields – PINK1 modulator	Six1-Eya2 blk	TRPML1 agonist	D2 agonist	D2 PAM	CtBP-E1A inh
O=C(N/N=C/c1c[nH]c2ccccc12)c1ccc(Br)cc1
  4.4%	-10	0.5	-2.7	-14	-4
Nc1nc(COc2ccc3ccccc3c2)cs1
  4.0%[38.3 µM]	-14	-0.5	1.6	6	-14
COc1ccc(N/N=C(/C#N)S(=O)(=O)C(C)(C)C)cc1
  5.8%	-4	-0.6	-3.9	-7	0
COc1ccc(-c2csc(NC(CO)c3nc4ccccc4n3CCOCCO)n2)cc1 (stereo not drawn)
  0.0%	-11	-0.8	-2.8	-12	-7
O=C(NCc1ccccc1)c1ncn[nH]1
  1.1%	-30	x	3.9	-11	-17
COc1ccccc1N1CCN(C(=O)C(C)NC(=O)c2ccco2)CC1 (stereo not drawn)
  8.3%	1	-0.7	2.4	2	-2
CCCOc1ccc(C(=O)CCC(=O)OCC(=O)N(CC)c2c(N)n(Cc3ccccc3)c(=O)[nH]c2=O)cc1
  -0.6%	5	-0.1	5.8	-3	x
COc1cccc(CN(C)S(=O)(=O)c2ccccc2Br)c1
  -0.1%	20	-1.2	-1.3	-2	18
Cc1ccc([N+](=O)[O-])cc1N=C(c1cccc([N+](=O)[O-])c1)N1CCOCC1
  -0.7%	-12	-0.5	-1.9	6	-12
S=C(c1c[nH]c2ccccc12)N1CCCC1
  -0.9%	0	-1.1	5.0	-5	-5

Additional results
Fields – PINK1 modulator	Six1-Eya2 blk	TRPML1 agonist	D2 agonist	D2 PAM	CtBP-E1A inh
O=C(Nc1ncc2c(n1)-c1ccccc1OC2)c1ccccc1Cl
  1.5%	-4	0.3	-4.5	-8	-12
CNC(=O)c1ccc(S(=O)(=O)c2ccc(Cl)cc2)c(NC(C)=O)c1
  -2.8%	-1	3.1	6.3	-1	0
COc1ccccc1C(CNC(=O)C(CCSC)NS(=O)(=O)c1ccccc1F)N1CCCC1 (stereo not drawn)
  -2.8%	-1	1.6	3.1	-68	-22
CCNC(=S)NC(=NCc1cccnc1)Nc1nc(C)cc(C)n1
  1.3%	0	-0.3	-3.6	-4	x
O=C(O)c1nc(NCCc2ccccc2)ncc1Cl
  0.7%	7	-0.1	-2.7	-3	-6
O=[N+]([O-])c1ccc(OCCCCCN2CCOCC2)cc1
  0.7%	-2	0.2	0.0	-2	1
N#Cc1ncn(-c2ccc(Oc3ccccc3)cc2)c1N
  1.9%	-7	0.0	3.3	-1	3
CCOc1ccccc1NC(=O)CSc1nc2c(c(=O)n1C)SC(C)C2 (stereo not drawn)
  3.7%	-7	-0.6	-1.0	-3	-2
CC(=O)NS(=O)(=O)c1ccc(NC(=O)COc2cccc3c2OC(C)(C)C3)cc1
  -3.4%	0	0.0	0.0	1	11
COc1cc2c(cc1OC)CN(C(=O)/C=C/c1ccc([N+](=O)[O-])cc1)CC2
  -1.7%	-22	1.1	1.7	6	-25

A different layout for 2 compounds above.
canonical_smiles | PINK1 modulator | Six1-Eya2 blk | TRPML1 agonist | D2 agonist | D2 PAM | CtBP-E1A inh
O=C(O)c1nc(NCCc2ccccc2)ncc1Cl | 0.7% | 7 | -0.1 | -2.7 | -3 | -6
O=[N+]([O-])c1ccc(OCCCCCN2CCOCC2)cc1 | 0.7% | -2 | 0.2 | 0.0 | -2 | 1

The listing continues:
Fields – PINK1 modulator	Six1-Eya2 blk	TRPML1 agonist	D2 agonist	D2 PAM	CtBP-E1A inh
O=C(/C=C/[C@H]1O[C@@H](n2cnc3c(NC(=O)c4ccccc4)ncnc32)[C@H](O)[C@@H]1O)NCCCc1ccccc1
  0.7%	0	-0.3	-0.6	-2	3
O=C(NCc1ccc(Cl)cc1)C1CCCN(S(=O)(=O)c2cnc[nH]2)C1 (stereo not drawn)
  3.4%	-3	-0.2	-1.9	-2	1
Cc1cc(C(C)(C)C)cc(C)c1Cn1c2[n+](c3ccc(C(F)(F)F)cc31)CCCCC2
  u	1	2.1	-3.5	-2	1
CCNC(=S)N/N=C/c1ccco1
  -1.1%	-1	0.3	-1.1	1	-3
COC(=O)C1=C(C)NC(=O)/C1=C\c1ccc2c(c1)OCO2
  5.1%	-2	-1.0	-6.1	-12	-1
CCC(C)C(NC(=O)C(CC(C)C)NC(=O)C(CO)NC(=O)C1CCC(=O)N1)C(=O)OC (stereo not drawn)
  0.7%	-10	-0.1	-2.8	-3	0
COc1ccc(NC(=O)CNC(=O)Cn2c(C)cc3ccccc3c2=O)cc1OC
  1.3%&0.2%	27	-1.4&-0.3	-2.8	6	24
CC1CN(c2ccc(NC(=O)c3ccco3)cc2C(=O)O)CC(C)O1 (stereo not drawn)
  0.7%	-1	-0.1	-1.0	-10	7
Cc1ccccc1-n1c(=O)[nH]c(=O)c2c(N)c(C(=O)c3ccc(Cl)cc3)sc21
  0.4%	1	0.9	-0.2	-7	-1
O=C1CC2CS(=O)(=O)CC2N1c1ccc(Oc2ccccc2)cc1 (stereo not drawn)
  -0.1%	-5	-0.3	-1.5	-19	6

(further entries)
Fields – PINK1 modulator	Six1-Eya2 blk	TRPML1 agonist	D2 agonist	D2 PAM	CtBP-E1A inh
CSc1nc(NCc2ccccc2)c2c3c(sc2n1)CN(C)CC3
  16%[38.3 µM]	-5	0.1	-2.6	-26	-13
O=C(NCc1ccco1)c1ccc(C(=O)NCc2ccco2)s1
  -0.8%	-8	-1.1	-2.6	-5	-1
Cc1ccc(S(=O)(=O)Nc2cccc(-c3ccc4nncn4n3)c2)cc1
  16%	7	-0.8	3.2	-4	9
O=c1oc2c(CN3CCCCC3)c(O)ccc2cc1-c1nc2ccccc2[nH]1
  1.7%[38.3 µM]	5	19	-0.2	-8	7
CC(C)=CCC/C(C)=C/CNC(=O)C[C@H]1C[C@H](C(=O)N2CCOCC2)[C@@]2(C)c3[nH]c4ccc(Cl)cc4c3CCN2C1=O
  1.0%	3	-0.2	0.2	-7	5
O=C(CSc1ncnc2ccccc12)NCc1ccco1
  -1.7%	-5	4.2	-1.7	-14	4
COc1cc(NC(=O)CCNC(=O)Cn2cnc3sc4c(c3c2=O)CCCC4)cc(OC)c1OC
  4.8%	1	-0.3	-4.3	-5	3

Screens deposited in PubChem by National Center for Advancing Translational Sciences (NCATS).
